Source: PubChem (National Center for Advancing Translational Sciences (NCATS))
Vaccinia mCherry – vaccinia inhibition (mCherry reporter) | Potency, µM (titrated, usually from 36.5 µM), inactives show top-dose activity change, negative = inhibition, most hits filed as inhibitors | Vaccinia virus mCherry reporter infection, fluorescence; about a quarter of the inactives have no number | hit rate 0.63% among 310,000; active = well fitted inhibition curve with a large enough effect; inconclusive = small, poorly fitted or top-dose-only effect; inactive = no such curve, though single readings can be large or run the other way; tested in A549 cells; further: nearly all actives have a fitted effect of over 35% in size; inactives centre near -10
Vaccinia Venus – vaccinia inhibition (Venus reporter) | Vaccinia virus Venus reporter expression, fluorescence | Potency, µM (highest dose often 36.5 µM), for inactives: at the top dose activity change, negative = inhibition, hits mostly inhibitors | hit rate 0.46% among 330,000; active means well fitted inhibition curve with a large enough effect; inconclusive means small, poorly fitted or top-dose-only effect; inactive means no such curve, though single readings can be large or run the other way; tested in A549 cells; further: nearly all actives have a fitted effect of over 30% in size; inactives centre near -10
Numbers without * were called inactive; i = inactive; u = inconclusive; x = not tested or not shown; & = joins results of further samples; [ ] = another dose, or the depositor's remark. On the % scale 0 is the no-effect control and ±100 the full control effect; potency means the concentration at half of the fitted maximal effect.

SMILES,Vaccinia Venus,Vaccinia mCherry
COCCOC(=O)c1c(C)oc2ccc(NS(=O)(=O)c3ccccc3)cc12,0%,-3%
O=C(Nc1ccc(Cl)c(C(F)(F)F)c1)NC1CC2CCCC(C1)N2C1CC1 (centres undefined),u,u
Cc1ccc2c(c1)N(Cc1ccccc1)C(=O)C(C)S2 (centres undefined),-3%,-15%
COc1cc(/C=N\Nc2nncn2N)ccc1OC(C)=O,20µM*,16µM*
CCOC(=O)c1ccccc1NC(=O)Cn1ccn2nc(-c3ccc(OCC)cc3)cc2c1=O,-4%,-6%
O=C(CN1CCN(c2ccccc2)CC1)N1CCc2[nH]c3ccccc3c2C1,u,u
CN(c1cccc(NC(=O)Nc2ccc(Cl)cc2)c1)S(C)(=O)=O,-26%,-12%
CC(C)C(=O)Nc1cccc(NC(=O)c2ccc([N+](=O)[O-])cc2Cl)c1,-5%,-7%
COc1ccccc1-c1noc(CSc2nc(C)cc(=O)[nH]2)n1,-15%,-7%
CCOC(=O)N1CCN(C(=O)/C(=C/c2ccc(OC)c(OC)c2)NC(=O)c2ccccc2)CC1,5%,4%
Cc1ccccc1NS(=O)(=O)c1ccc2c(c1)NC(=O)CCS2,-12%&0%,-35%&-4%
Cc1ccc(S(=O)(=O)CCC(=O)OCC(=O)Nc2cc(S(=O)(=O)N3CCOCC3)ccc2C)cc1,-6%,-11%

Part of the list above in order of length of the SMILES, high to low:
SMILES,Vaccinia Venus,Vaccinia mCherry
CCOC(=O)c1ccccc1NC(=O)Cn1ccn2nc(-c3ccc(OCC)cc3)cc2c1=O,-4%,-6%
CC(C)C(=O)Nc1cccc(NC(=O)c2ccc([N+](=O)[O-])cc2Cl)c1,-5%,-7%
O=C(Nc1ccc(Cl)c(C(F)(F)F)c1)NC1CC2CCCC(C1)N2C1CC1 (centres undefined),u,u
O=C(CN1CCN(c2ccccc2)CC1)N1CCc2[nH]c3ccccc3c2C1,u,u
COc1cc(/C=N\Nc2nncn2N)ccc1OC(C)=O,20µM*,16µM*

Copied from the list:
Vaccinia Venus with COCCOC(=O)c1c(C)oc2ccc(NS(=O)(=O)c3ccccc3)cc12 → 0%
Vaccinia Venus with CC(C)C(=O)Nc1cccc(NC(=O)c2ccc([N+](=O)[O-])cc2Cl)c1 → -5%
Vaccinia mCherry with COc1ccccc1-c1noc(CSc2nc(C)cc(=O)[nH]2)n1 → -7%
Vaccinia mCherry with COc1cc(/C=N\Nc2nncn2N)ccc1OC(C)=O → 16µM*

(next part)
SMILES,Vaccinia Venus,Vaccinia mCherry
CCCCC1CC2=C(C(=O)OC(C)(C)O2)C(c2ccc(F)cc2)O1 (centres undefined),-13%,10%
COc1ccc(C2(c3ccc(OC)cc3)NC(=O)N(CC(=O)Nc3ccc(OC(F)F)cc3)C2=O)cc1,u,u
Cc1ccc(/C(O)=C2\C(=O)C(=O)N(C)C2c2ccccc2[N+](=O)[O-])cc1 (centres undefined),-7%,i
Cc1cc(OCCCC(=O)NCCc2ccccn2)ccc1Cl,7%,i
CC1=CCC2C(=O)N(c3ccc(N4CCOCC4)cc3)C(=O)C2C1 (centres undefined),-16%,i
COc1ccc(-c2csc(=Nc3ccccc3)n2CCO)cc1,-15%,-22%
COCCN1C[C@@H](CO)O[C@@H](n2cnc3c(NCc4ccncc4)ncnc32)C1,2%,3%
CCOC(=O)CNS(=O)(=O)c1ccc(S(=O)(=O)N2CCCC2)cc1,-17%,-5%
COC1OC(c2ccccc2)=C(c2cnc(N)nc2)c2ccc(F)cc21 (centres undefined),-6%,31%[activator]
O=C(CS(=O)(=O)c1cn(Cc2ccc(Cl)cc2)c2ccccc12)N1CCCC1,-9%,-13%
Cc1noc(C)c1S(=O)(=O)Nc1ccc2c(c1)C(=O)N([C@@H](C)CO)C[C@@H](C)[C@@H](CN(C)CC1CCCCC1)OCCCC[C@@H](C)O2,-24%,u
CCOc1cc(CNc2cccc3ccccc23)cc(Br)c1OCC(=O)NC(C)(C)C,-11%,-24%
COc1ccc(CN(C)CC(=O)Nc2ccccc2-c2ccccc2)c(OC)c1,-20%,-11%
CCOC(=O)C1=CCN(S(=O)(=O)c2ccccc2Br)C1c1ccc(C)cc1 (centres undefined),-3%,7%
COc1ccc(C(=O)c2c(C)c(CCC#N)n3ccccc23)c(OC)c1,-19%,-7%
S=C(NCC1CCCO1)Nc1ccc(Cl)cc1 (centres undefined),-2%,-10%
CCCCCCCCC(=O)N/N=C(\C)c1ccco1,-5%,-1%
COc1cccc(NC(=S)NC(C)c2ccc(OC)c(OC)c2)c1 (centres undefined),-3%,0%
O=C(NCc1ccccc1Cl)C(=O)NCC(c1cccs1)S(=O)(=O)c1cccs1 (centres undefined),-13%,-13%
Cc1ccc2[nH]c3c(N4CCc5ccccc5C4)ncnc3c2c1,u,u
COc1ccc(CNC(=O)Nc2ccc(C)cc2)cc1,-24%,x
N#CCC1c2ccccc2CCN1C(=O)Nc1ccc(Cl)cc1 (centres undefined),-16%,-2%
COc1cc(OC)cc(C(C(=O)NCc2ccccc2)N(Cc2ccco2)C(=O)c2ccno2)c1 (centres undefined),-17%,x
COc1ccccc1N/C(=N/S(=O)(=O)c1ccc(C)cc1)c1ccccc1,-4%,-15%
O=C1/C(=C\c2cccc(O)c2O)SC(=S)N1Cc1ccccc1,34%[activator],-15%
O=C(CN1C(=O)C2C3C=CC(C3)C2C1=O)NCc1ccco1 (centres undefined),-19%,x
Cc1cccn2c(=O)c(/C=C(\C#N)C(=O)NCc3ccccc3)c(N3CCC(C(N)=O)CC3)nc12,-13%[7.34 µM],-11%[7.34 µM]
COc1ccc2[nH]c3c(c2c1)CCN1C(=O)C(CC(=O)NCCN2CCOCC2)C[C@H](C(=O)N2CCCCC2)[C@@]31CCc1ccccc1 (some centres undefined),-21%,-13%
COc1ccccc1CNC(=O)C1=C(C)C(=O)OC12CCC(C)CC2 (centres undefined),-13%,i
Cc1ccc(Cl)cc1NC(=O)CCCN1C(=O)c2cccnc2C1=O,0%,16%
CC1C(C)N(C(=O)CCl)c2ccccc2N1C(=O)CCl (centres undefined),u,8.9µM*
CSCC[C@H](NC(=O)C1CCN(S(=O)(=O)c2ccc(C)cc2)CC1)C(=O)NC1CCS(=O)(=O)C1 (some centres undefined),-12%,-10%
CC1(C)OC2OC(C3COC(=O)O3)C(OC(=O)c3ccccc3)C2O1 (centres undefined),0%,i
O=C1c2ccccc2NC(c2ccc(-c3cccc([N+](=O)[O-])c3)o2)N1O (centres undefined),u,13µM*
CCCCCCCCCCCCCCCC[N+](C)(C)CCl,u,-17%
CC(C)(C)C(=O)Nc1ccc2nc(SCC(=O)N3CCc4ccccc43)sc2c1,-15%,i
N#Cc1ccc(/C=N/NC(=O)c2ccccc2F)cc1,7%,-6%
CC1(C(=O)NS(=O)(=O)c2ccccc2C(F)(F)F)CCN1C(=O)C1CCCCC1 (centres undefined),-8%,-7%
Cc1ccccc1Oc1ccc2c(c1)[C@@H]1C[C@H](N(C)C(=O)c3cccnc3)[C@H]([C@H](C)O)C(=O)N1CC2,-21%,i
Cc1nc2ccc(NC(=S)NC3CC3)cc2nc1C,-14%,-6%
O=C(CNC(=S)N(Cc1ccc(F)cc1)C1CCCCC1)NCC1CCCO1 (centres undefined),-6%,-11%
O=C(Nc1nnc(SCc2ccc(F)cc2)s1)c1cccnc1Cl,-11%,0%
O=C(CSc1ccccc1)N1CCN(c2ccccn2)CC1,8%,-9%
CCOC(=O)C1CCN(C(c2cccc(F)c2)c2c(O)cc(C)n(Cc3ccco3)c2=O)CC1 (centres undefined),2%,-6%
COc1ccccc1NC(=O)Cn1c(=O)n(Cc2ccccc2)c(=O)c2c3c(sc21)CN(C(C)=O)CC3,-10%,-1%
CCOc1ccccc1N1CCN(CC(=O)Nc2nc(C)c(C(=O)N(C)C)s2)CC1,-6%,-7%
CC1CCc2nn(CC(=O)NCCCN3CCCC3=O)cc2C1 (centres undefined),5%,1%
CCOc1ccc(C(=O)NCC(c2ccc3c(c2)OCO3)N2CCN(c3ccccc3F)CC2)cc1 (centres undefined),-3%,-2%
COc1ccc(Cn2c(=O)[nH]c3cc(C(=O)NC4CCN(Cc5ccccc5)CC4)ccc32)cc1,-22%,-18%
Cc1ccc(S(=O)(=O)N(Cc2n[nH]c(=S)n2-c2ccccc2)c2ccccc2)cc1,-9%,i
Cc1cc(N/N=C\c2ccc(Br)cc2)nc(-n2nc(C)cc2C)n1,u,2.2µM*
COc1cc(NC(=O)c2ccc3oc(=O)c(S(=O)(=O)c4ccccc4)cc3c2)cc(OC)c1,4%,-16%
Cc1occc1-c1nnc(SCc2nnc(-c3ccc(Cl)cc3)o2)n1C,-15%,i
CCn1c(SCC(=O)c2cccs2)nnc1-c1cccs1,-2%,-13%
COc1ccc(CC(=O)Nc2cc(S(=O)(=O)N3CCCCC3)ccc2OC(C)C)cc1OC,-23%,-15%
CCN1CCN(c2ccc(NC(=O)c3ccc4c(c3)OCCO4)cc2C)CC1,-9%,i
Cc1c(Br)cc(C(=O)O)c(C)c1C,-17%,-13%
O=C(C1=C[C@H](c2csc3ccccc23)C[C@H](OCc2ccc(CO)cc2)O1)N1CCOCC1,-9%,i
COCCCn1c(SCC(=O)Nc2ccccc2OC)nc2c(sc3ccccc32)c1=O,-15%,-2%
N#Cc1c2n(c(=S)n(-c3ccccn3)c1=O)CCCCC2,3%,-7%

Other results follow:
SMILES,Vaccinia Venus,Vaccinia mCherry
C[C@H](CO)N1C[C@H](C)[C@H](CN(C)Cc2ccncc2)OCc2ccccc2-c2c(n(C)c3ccccc23)C1=O,-16%,i
COC(=O)C(C)Oc1ccc2cc(-c3ccccc3)c(=O)oc2c1 (centres undefined),-19%,-27%
CCSc1nnc(NC(=O)C(Cc2ccccc2)n2cccc2)s1 (centres undefined),-11%,21%
COc1cccc2cc(C(=O)C3=C(O)C(=O)N(CCN4CCOCC4)C3c3ccc(Cl)cc3)oc12 (centres undefined),-6%,i
COC(=O)c1cc(-c2cccc([N+](=O)[O-])c2)c2c(=O)[nH]c(=O)n(C)c2n1,-10%,-20%
Clc1ncccc1OCc1ccccc1,-11%,-1%
Cc1cn(C(=O)CN2C(=O)c3ccccc3C2=O)c(C)n1,-12%,-11%
Cc1cc(-c2cccs2)c2c(n1)sc1c(=O)[nH]c(=O)[nH]c12,-10%,-9%
C(=N\n1cnnc1)/c1ccc(OCc2cccc3ccccc23)cc1,-24%,x
CC(C)CNC(=O)C(=O)Nc1c2c(nn1-c1ccccc1)CS(=O)(=O)C2,-9%,-3%
Cn1c(=O)[nH]c2c(c1=O)CCO2,-4%,-11%
COc1ccccc1OCCC(=O)OCC(=O)Nc1cc(S(=O)(=O)N2CCOCC2)ccc1Cl,u,u
O=[N+]([O-])c1ccc(N2CCN(Cc3ccccc3)CC2)nc1,-16%,-20%
CCc1ccc(NC(=O)c2cc(S(=O)(=O)N3CCc4ccccc43)cn2C)cc1,-9%,i
CCCCCCCCOC(=O)C1=C(C)Nc2nnnn2C1c1cccs1 (centres undefined),-24%,-29%
NS(=O)(=O)c1ccc(NC(=S)Nc2ccc(OCc3ccccc3)cc2)cc1,-10%,-1%
Nc1c(C(=O)Nc2cccc(F)c2)sc2nc(-c3cccs3)ccc12,-12%,-12%
COc1ccc(NC(=O)c2c(C)nn(Cc3ccccc3Cl)c2Cl)cc1Cl,-6%,-15%
Cc1ccc(NC(=O)NC2CCCCC2)c(C)c1,-4%,i
CCc1ccccc1NC(=O)Cc1ccc(-n2c(C)nc3cccnc32)cc1,-16%,-22%
Cc1cccc(C(=O)NC2(C(F)(F)F)N=C(c3ccccc3)N(Cc3ccccc3)C2=O)c1 (centres undefined),-10%,-4%
O=C(CNc1cc(S(=O)(=O)N2CCOCC2)ccc1NCC1CCCO1)Nc1ccc(F)c(F)c1 (centres undefined),-18%,-23%
O=C1c2ccccc2S(=O)(=O)N1Cc1cccc(S(=O)(=O)N2CCOCC2)c1,-7%,x
COc1ccccc1NC(=O)CC1C(=O)Nc2ccccc2N1C(=O)c1ccccc1 (centres undefined),1%,-10%
Cc1cc(NC(=O)CSc2nnc(C)n2-c2ccccc2C)no1,-1%,-3%
Cc1cc(C)cc(C(=O)n2nc(C)c(S(=O)(=O)N3CCOCC3)c2C)c1,-9%,-23%
CCOc1ccccc1-c1nc(CN(Cc2cnn(C)c2)C(C)C)c(C)o1,-11%,i
COc1ccc(Cl)cc1NC(=O)CCNC(=O)Cn1ccc2ccccc2c1=O,-1%,-6%
CN(CC(=O)Nc1c(F)cccc1F)Cc1cccs1,-12%,-1%
CC(=O)c1ccc(NC(=O)c2ccc(C)c(Br)c2)cc1,-13%,i
CN1CCN(C(=O)C2CC(=O)N(c3ccc(F)c(Cl)c3)C2)CC1 (centres undefined),-12%,i
Cc1cc2nc(-c3ccc(C#N)cc3)c(Cc3ccsc3)n2c(C)c1Br,8%,0%
COc1ccc(CCNS(=O)(=O)c2c(N)n(C)c(=O)n(C)c2=O)cc1OC,-3%,i
